Screens deposited in PubChem by National Center for Advancing Translational Sciences (NCATS).
MARV entry inh: blocks Marburg virus binding or cell entry. Marburg virus pseudotype entry/binding inhibition, cell-based; control for the full effect not named in the record; many of its hits are not listed in these tables. 18,000 tested, 6.5% active. Potency, µM (series often up to 49.2 µM), inactives show top-dose activity change, negative = inhibition, hits mostly inhibitors; active means well fitted inhibition curve with a large enough effect; inconclusive means small, poorly fitted or top-dose-only effect; inactive means no such curve, though single readings can be large or run the other way; tested in HEK293 cells; note: luciferase read-out
Lassa entry: blocks Lassa virus binding or cell entry | 18,000 tested, 4.1% active | Lassa virus pseudotyped entry inhibition, cell-based qHTS; control for the full effect not named in the record; many of its hits are not listed in these tables | AID 720533 | Potency, µM (highest dose often 49.2 µM), inactives show top-dose activity change, negative = inhibition, actives largely listed as inhibitors; active = well fitted inhibition curve with a large enough effect; inconclusive = small, poorly fitted or top-dose-only effect; inactive = no such curve, though single readings can be large or run the other way; tested in HEK293 cells; note: luciferase read-out
* hit, by the source's call; u = inconclusive; x = no result given; & = joins results of further samples; [ ] = another dose, or the depositor's remark. % is set by controls: 0 for no effect and ±100 for the full control effect; potency is the fitted concentration of half-maximal effect.

structure	MARV entry inh	Lassa entry
COC(=O)C1=C(C)NC(C)=C(C(=O)NCCCN2CCC(c3ccccc3)(c3ccccc3)CC2)C1c1ccc([N+](=O)[O-])cc1 (stereo unspecified)	3.2µM*	u
COc1ccc(-c2cc(=O)c3ccc(F)cc3[nH]2)cc1	3%	-11%
COc1ccc(Cc2cnc(N)nc2N)cc1OC	-3%	-21%
Nc1nc(F)nc2c1ncn2[C@@H]1O[C@H](CO)[C@@H](O)[C@@H]1O	9%&23%	-7%&-11%
COc1ccc([C@@H]2CC(=O)c3c(O)cc(O[C@@H]4O[C@H](CO)[C@@H](O)[C@H](O)[C@H]4O[C@@H]4O[C@@H](C)[C@H](O)[C@@H](O)[C@H]4O)cc3O2)cc1	2%	-11%
CCN(CCO)CCCC(C)Nc1ccnc2cc(Cl)ccc12 (stereo unspecified)	1.3µM*	-17%&-16%
Cc1cc(C)nc(S[C@@H]2C[C@@H](C(=O)N3CCCN(C)CC3)N(Cc3cc(F)ccc3F)C2)n1	0%	-8%
CCCCCCCCNCCS(=O)(=O)NN1CCOCC1	u	23%
NCCc1c[nH]c2ccccc12	u	-8%&0%
CCN1C[C@@]2(COC)CC[C@H](OC)[C@]34[C@@H]1[C@]1(OCO[C@@]15C[C@@H](OC)C1C[C@H]3[C@H]5[C@@H]1OC)[C@H](O)[C@@H]24	5%[17.8 µM]	-11%[17.8 µM]
Nc1nc2c(nc(Br)n2C2CC(O)C(CO)O2)c(=O)[nH]1 (stereo unspecified)	13%	0%
COC(=O)[C@@H]1CC[C@H](C)[C@@H](c2ccc(C)cc2)N1C(=O)c1ccc(C=NOC[C@H]2O[C@H](c3ccccc3)C=C[C@H]2Oc2ccc(OC)cc2)cc1	-7%[8.59 µM]	-22%[8.59 µM]
COc1ccccc1CNS(=O)(=O)CCNC1CC1	23%	10%
COc1ccc(CN2C[C@]3(CO)OC(CO)C[C@H]3[S+]2(=O)[O-])cc1 (stereo partly specified)	20%	13%
COc1cc(CCN2C(=O)NC(c3cccc(C(F)(F)F)c3)C(C(C)=O)=C2C)cc(OC)c1OC (stereo unspecified)	5%[8.59 µM]	x
N#C/C(=C\c1cc(Cl)cc(Cl)c1)c1cccnc1	u	-9%&-10%
CCCCCCC(=O)O[C@H]1CC[C@H]2[C@@H]3CC[C@H]4CC(=O)C=C(C)[C@]4(C)[C@H]3CC[C@]12C	19%	u
COc1ccc2c(c1-c1c3c(cc(Br)c1OC)CCCC3)CCCC2	-2%	2%
NCCC[C@@H](CC(=O)N[C@@H]1CCCC[C@H]1C(=O)N[C@H](CC(=O)N[C@@H](CCC(=O)O)CC(=O)O)Cc1c[nH]c2ccccc12)NC(=O)C[C@H](CO)NC(=O)[C@@H]1CNCC[C@H]1N	0%	-5%
CC(=O)CC1CCCCN1 (stereo unspecified)	u	6%
Cc1cccc(CNc2ccnc(-c3ccoc3)n2)c1	13%	9%
CC(C)(C)OC(=O)N1CCCC(C(=O)Nc2ccc(C(=O)N3CCCC3)cc2)C1 (stereo unspecified)	22%	8%
CC(C)(C)[C@@H](O)C(Cc1ccc(Cl)cc1)n1cncn1 (stereo partly specified)	-1%	-5%
COCC1=C(C(=O)OC(C)OC(=O)OC(C)C)N2C(=O)[C@@H](NC(=O)/C(=N\OC)c3csc(N)n3)[C@H]2SC1 (stereo partly specified)	u	u
COc1ccc(/C=C/C(=O)c2ccc(OC)cc2OC)cc1	-23%	u
C=C1CC2COC(=O)C2(Cc2ccc3ccccc3c2)C1 (stereo unspecified)	-20%	-17%
CC1=C(C(=O)O)N2C(=O)[C@@H](NC(=O)[C@H](N)C3=CCC=CC3)[C@H]2SC1	17%	1%
CC(C)c1c(C(=O)NCC(C)(C)N2CCOCC2)cnn1-c1nccc(-c2cccs2)n1	-16%	-4%
O=C(O)C1CN(CP(=O)(O)O)CCN1 (stereo unspecified)	40%[activator]	10%
CCOC(=O)N1CCC(N2CCOc3ccc(CN4CCC(O)(c5cccnc5)CC4)cc3C2)CC1	-29%	3%
CC(=O)c1cc2ccccc2oc1=O	-8%[17.8 µM]	3%[17.8 µM]
CC1C=C[C@@H]2[C@H](C1)C(=O)N(Cc1ccccc1)[C@H]2c1ccccc1Br (stereo partly specified)	-27%	u
OC[C@@H](O)C(O)[C@H](O)[C@H](O)CO (stereo partly specified)	15%	1%
CCN1C(=O)NC(c2ccco2)C(C(C)=O)=C1C (stereo unspecified)	26%[8.59 µM]	-16%[8.59 µM]
COc1ccc(-c2ccc(CN3C(C)C(=O)N(Cc4cn(CCC5OCCO5)nn4)CCS3(=O)=O)cc2)cn1 (stereo unspecified)	19%	35%[activator]
CO[C@H]1C[C@H](O[C@H]2[C@H](C)[C@@H](O[C@@H]3O[C@H](C)C[C@H](N(C)C)[C@H]3O)[C@@H](C)C[C@]3(CO3)C(=O)[C@H](C)[C@@H](O)[C@@H](C)[C@@H](C)OC(=O)[C@@H]2C)O[C@@H](C)[C@@H]1O	-7%[17.8 µM]	-14%[17.8 µM]
CN1CCN(C(c2ccccc2)c2ccc(Cl)cc2)CC1 (stereo unspecified)	u	u
CCOC(=O)OC(C)OC(=O)C1N2C(=O)C(NC(=O)C(N)c3ccccc3)C2SC1(C)C (stereo unspecified)	-9%	7%
COc1cccc(-c2ccc(O)c(CNC3CN4CCC3CC4)c2)n1 (stereo unspecified)	u	-18%
CN=C(N)NCCC[C@H](N)C(=O)O	-15%&-12%&9%	-2%&-7%&-7%
CCCCCCOC(=O)c1cccnc1	12%	-5%
Cc1ccc(NC(=O)OCCN2CCN(Cc3ccccc3)CCC2=O)cc1	31%	-17%
S=C=Nc1ccc(N=C=S)cc1	28%	7%
O=c1[nH]c(=O)n(Cl)c(=O)n1Cl	8%	-2%
CC[C@@H](C)[C@H](NS(=O)(=O)c1ccc(F)cc1Br)C(=O)OC	22%	5%
CCN(CC)C1CCN(C(=O)c2cnn(-c3nccc(-c4ccco4)n3)c2C(C)C)C1 (stereo unspecified)	9%	-7%
C=CCNC(=O)N1CCc2nc(CCCC)c3c(c2C1)CO[C@@H](C)C3	-18%[8.59 µM]	-7%[8.59 µM]
COc1cc(-c2oc3cc(O)cc(O)c3c(=O)c2O)ccc1O	4%	3%
COc1cc(=O)n2c(c1C(=O)NCc1ccc3c(c1)OCO3)CCN(C(=O)c1cccc(F)c1)CC2	-24%	12%
O=C1CCCC2C3CC(CN12)C1CCCCN1C3 (stereo unspecified)	u	-5%

An excerpt from above in order of length of the SMILES, low to high.
structure	MARV entry inh	Lassa entry
COc1cccc(-c2ccc(O)c(CNC3CN4CCC3CC4)c2)n1 (stereo unspecified)	u	-18%
CCN(CC)C1CCN(C(=O)c2cnn(-c3nccc(-c4ccco4)n3)c2C(C)C)C1 (stereo unspecified)	9%	-7%
CCOC(=O)N1CCC(N2CCOc3ccc(CN4CCC(O)(c5cccnc5)CC4)cc3C2)CC1	-29%	3%

5 entries picked at random from those above, as already listed:
structure	MARV entry inh	Lassa entry
CC1=C(C(=O)O)N2C(=O)[C@@H](NC(=O)[C@H](N)C3=CCC=CC3)[C@H]2SC1	17%	1%
O=c1[nH]c(=O)n(Cl)c(=O)n1Cl	8%	-2%
CCOC(=O)OC(C)OC(=O)C1N2C(=O)C(NC(=O)C(N)c3ccccc3)C2SC1(C)C (stereo unspecified)	-9%	7%
O=C(O)C1CN(CP(=O)(O)O)CCN1 (stereo unspecified)	40%[activator]	10%
C=CCNC(=O)N1CCc2nc(CCCC)c3c(c2C1)CO[C@@H](C)C3	-18%[8.59 µM]	-7%[8.59 µM]

(more compounds)
structure	MARV entry inh	Lassa entry
Cc1ccc(CN2C(=O)C[C@@H](NS(=O)(=O)c3ccc4ccccc4c3)C/C=C\C2c2ccc(C)cc2)cc1 (stereo partly specified)	-14%	-6%
Cc1ccccc1Nc1oc(-c2ccccc2)nc1-c1cccc2ccccc12	13%	3%
COc1ccccc1CNc1cc(-c2cccc(NS(C)(=O)=O)c2)ncn1	3%	-7%
Nc1nc2n[nH]nc2c(=O)[nH]1	-12%[17.8 µM]	-25%[17.8 µM]
CN1C=CC(=C2C=CN(C)C=C2)C=C1	-9%	2%
CCCCCCCC1=Cc2ccc(F)cc2C(C(C(=O)OC)C(=O)OC)N1C(=O)OC (stereo unspecified)	2%	-8%
O=C(CC1(c2cccc(F)c2)CC(=O)N(Cc2cccnc2)C1=O)N1CCCCCCC1 (stereo unspecified)	-7%	u
Cc1ccc(-c2c(C)cc3oc(=O)cc(-c4ccccc4)c3c2C)cc1	-17%	u
O=c1[nH]c(=O)c2nc3ccccc3nc2[nH]1	1%	5%
CSCC[C@H](NC(=O)[C@H](CC(C)C)NC(=O)[C@@H]1CCCN1C(=O)[C@H](Cc1ccccc1)NC(=O)[C@H](Cc1ccccc1)NC(=O)[C@@H]1CCC(=O)N1)C(N)=O	-6%	4%
CCn1c(-c2cccc(OC)c2)nc2cc(NC(C)=O)cc(C(=O)N3CCCC(C(C)=O)C3)c21 (stereo unspecified)	-20%	-10%
C=C1C[C@]23CC[C@H]4C(CO)(CO)C[C@@H](O)C[C@@]4(C)[C@@H]2CC[C@H]1C3	-12%	5%
CCCCO	4%	-4%
CCN(CC)CCO[C@H]1CC[C@@]2(C)C(=CC[C@@H]3[C@H]2CC[C@]2(C)C(=O)CC[C@H]32)C1	13µM*	-23%
Oc1ccc(-c2cnccn2)cc1CN1CCN(C2CCCCC2)CC1	-1%	0%
CCOC(=O)C1(CC)Oc2ccccc2C(c2ccc(OC)cc2)=C1C(=O)OC (stereo unspecified)	-3%	-30%
O=C(Nc1ccc(C(=O)N2CCCC2)cc1)C1CCC1	34%	11%
CN(C)c1cccc(C(=O)NCC2Cc3cccc(-c4cncnc4)c3O2)c1 (stereo unspecified)	1%	4%
CCN1C(=NCc2ccccc2)NC(c2cccc(C(F)(F)F)c2)C(C(=O)OC)=C1C (stereo unspecified)	u	17%[8.59 µM]
COC(=O)C#CC(=O)OC	-11%	8%
COc1ccc(CN2CCOc3ccc(CN4CCC(O)(c5cccnc5)CC4)cc3C2)cc1OC	u	-4%
Cc1ccccc1CN1[C@@H](CC(C)C)COc2c(Cl)cccc2S1(=O)=O	-24%	15%
Cc1cccc(CN2CCN(C3CN(Cc4ccc([N+](=O)[O-])cc4)S(=O)(=O)C3)CC2)c1 (stereo unspecified)	-20%	13%
CSCC[C@@H](N)C(=O)O	10%	2%
C[C@H](CCC(=O)NCC(=O)O)C1CC[C@H]2C3CC[C@@H]4C[C@H](O)CC[C@]4(C)C3C[C@H](O)[C@]12C (stereo partly specified)	15%	-18%
CN(C)Cc1ccccc1-c1ccc2ncnc(N3CCOCC3)c2c1	u	2%
Cc1c(C(=O)NCC2COCCO2)cnn1-c1ncc2c(n1)-c1ccccc1CC2 (stereo unspecified)	45%[activator]	-1%
CN(C)Cc1ccccc1-c1cncnc1NCc1cccnc1	-15%	-2%
CC(C)C[C@H]1COc2c(Cl)cccc2S(=O)(=O)N1Cc1ccc(F)cc1	3%	13%
CN[C@H]1CCc2cc(OC)c(OC)c(OC)c2-c2ccc(N[C@@H]3CCCCNC3=O)c(=O)cc21	u	-15%
C[C@@]12CC(c3ccoc3)OC(=O)C1CC[C@@]1(C)C2C2C=C[C@@]1(O)C(=O)O2 (stereo partly specified)	-10%	7%
CN(C)CCN(C)C1CN(Cc2ccc([N+](=O)[O-])cc2)S(=O)(=O)C1 (stereo unspecified)	11%	60%[activator]
C=CC1=C2C=C(C3CC3)N(Cc3ccccc3)C=C2C(=O)C(C)(OC(=O)c2ccco2)C1=O (stereo unspecified)	-1%[8.59 µM]	1%[8.59 µM]
Cc1cccc(CN2CCSCCS2(=O)=O)c1	13%	-12%
CCCN1CC(CSC)C[C@H]2c3cccc4[nH]cc(c34)C[C@H]21 (stereo partly specified)	u	4%
COc1ccccc1CNc1ncncc1-c1ccc(N(C)C)cc1	-19%	-9%
NC(N)=NS(=O)(=O)c1ccc(N)cc1	3%[17.8 µM]	-5%[17.8 µM]
CC(=O)C1CC2C=CCOP(=O)(O2)O1 (stereo unspecified)	u	2%
NC(=O)[C@@H]1CCCN1C(=O)CCN1Cc2ccccc2OC(c2ccccc2F)C1 (stereo partly specified)	4%	22%
CC(C)CC1C(=O)N(Cc2cn(CCC3OCCO3)nn2)CCS(=O)(=O)N1Cc1ccc(-c2cccc(N(C)C)c2)cc1 (stereo unspecified)	-42%	-31%
CCC(C)C(=O)OC1C(O)C2C(CN3CC(C)CCC3[C@]2(C)O)C2C[C@]34O[C@@]5(O)C(OC(=O)C(C)(O)C(C)O)CCC3(C)C5C(OC(C)=O)C(OC(C)=O)C4[C@@]21O (stereo partly specified)	7%	-13%
CC(=O)OCC(=O)[C@@]1(O)[C@H](OC(C)=O)C[C@H]2[C@@H]3CCC4=CC(=O)C=C[C@]4(C)[C@@]3(F)[C@@H](O)C[C@@]21C	12%&6%	-10%&-13%
CNc1ncncc1-c1ccc(C(=O)N(C)C)cc1	4%	-6%
C=C(C)C(=O)OCCO	6%	4%
CC(C)c1ccc2c(c1)CC[C@@H]1[C@@](C)(CN)CCC[C@]21C	u	-7%
CC(C)=CCc1c(O)cc2occ(-c3ccc4c(c3)OCO4)c(=O)c2c1O	-28%	u

The list is partial, so the mix of outcomes need not match the whole.
